# Compound activity: PubChem, Vanderbilt University
# GIRK2 activ = activators of human GIRK2 potassium channels | P48051 | calls only for hits at 25 µM | HEK293-GIRK2 thallium flux, Thallos fluorescence | AID 1259325 | 63,000 tested, 0.05% active;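 active = among the strongest 0.2% of first-round signals and kept after retests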;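 note: first round at about 10 µM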
# Target sequence (P48051 whole entry, looked up): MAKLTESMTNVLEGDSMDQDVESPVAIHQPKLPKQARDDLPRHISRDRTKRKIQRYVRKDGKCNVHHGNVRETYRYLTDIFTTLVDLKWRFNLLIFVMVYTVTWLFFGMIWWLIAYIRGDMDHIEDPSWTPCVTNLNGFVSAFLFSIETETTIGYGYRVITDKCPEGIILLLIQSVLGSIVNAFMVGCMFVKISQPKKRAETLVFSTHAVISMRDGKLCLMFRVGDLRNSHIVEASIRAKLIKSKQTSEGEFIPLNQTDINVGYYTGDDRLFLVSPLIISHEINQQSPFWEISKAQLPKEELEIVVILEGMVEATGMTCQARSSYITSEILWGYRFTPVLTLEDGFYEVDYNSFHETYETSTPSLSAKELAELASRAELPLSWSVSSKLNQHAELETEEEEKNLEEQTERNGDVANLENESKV
# Calls only; i = inactive. These rows are one share of the data; the hit share may differ from the screen's.
Structure	GIRK2 activ
Cc1ccc(-c2csc3c(=O)n(CC(=O)N4CCCC4)cnc23)cc1	i
Cc1ccc(-n2nnnc2SCC(=O)NCCO)cc1Cl	i
CCOc1cccc(CNC(=O)C2CCCN(c3ncnc4c3oc3ccccc34)C2)c1 (centres undefined)	i
Cn1c(=O)c2c(nc(N3CCCC3)n2CC(O)COc2ccc(Cl)cc2Cl)n(C)c1=O (centres undefined)	i
COc1ccc(C(O)=C2C(=O)C(=O)N(c3cc(C)on3)C2c2ccccc2OC)cc1C (centres undefined)	i
O=c1c2cc(N3CCOCC3)ccc2nc(SCc2ccncc2)n1Cc1ccccc1	i
COc1cc(OC)cc(C(=O)Nc2ccc3c(c2)CCC(=O)N3CCC(C)C)c1	i
NC(=O)Cc1ccc(NC(=O)Nc2cccc(Cl)c2)cc1	i
Cc1ccc(NC(=O)CN2CCCN(Cc3ccc(Cl)cc3)S2(=O)=O)cc1Cl	i
COCCNC(=O)c1ccc(NS(=O)(=O)c2cc(C)ccc2C)cc1	i
CC(=O)CC1(O)C(=O)N(CCCOc2ccc(Cl)cc2Cl)c2c(C)cccc21 (centres undefined)	i
O=C(COc1ccccc1F)NCC(O)c1ccc2c(c1)CCO2 (centres undefined)	i
Cc1c(-c2ccccc2)c(=O)oc2c3c(ccc12)OCN(C1CCS(=O)(=O)C1)C3 (centres undefined)	i
CCN(CC)CCN1C(=O)c2oc3ccccc3c(=O)c2C1c1ccc(C(=O)OC)cc1 (centres undefined)	i
COc1cc(C)c(C)cc1S(=O)(=O)NCc1sc(C)nc1C	i
COc1ccc(-c2nonc2NC(=O)C(C)C)cc1OC	i
COc1cccc(-n2c(C)cn3c4c(=O)n(Cc5ccccc5F)c(=O)n(C)c4nc23)c1	i
Cc1ccc(CNC(=O)c2nnn(-c3ccc(C)c(C)c3)c2-c2ccncc2)cc1	i
O=C(CSc1nnc2ccc3ccccc3n12)Nc1ccc2c(c1)OCCO2	i
CCOc1ccc(S(=O)(=O)N2CCCSCC2CN(C)C)cc1C (centres undefined)	i

# Reprinted at random: three compounds from above
Structure	GIRK2 activ
COc1cc(C)c(C)cc1S(=O)(=O)NCc1sc(C)nc1C	i
COc1ccc(-c2nonc2NC(=O)C(C)C)cc1OC	i
Cc1ccc(CNC(=O)c2nnn(-c3ccc(C)c(C)c3)c2-c2ccncc2)cc1	i

# Continuation:
Structure	GIRK2 activ
Cn1nc(-c2ccc(F)cc2)cc1C(=O)NCCc1ccoc1	i
CCCCC(C)(C)C(O)/C=C/[C@H]1C=CC(=O)C1C/C=C\CCCC(=O)O (some centres undefined)	i
O=C(Cn1cnc2nc(N3CCOCC3)ncc2c1=O)NCc1ccc(F)cc1F	i
O=C(NCCCS(=O)(=O)N1CCN(c2ccccn2)CC1)C1CCCC1	i
CCOC(=O)c1cc2cc(F)ccc2s1	i
COc1ccc(C(=O)/C=C/c2ccc(C(=O)O)cc2)c(OC)c1	i
C/C=C/COC(=O)C1=C(C)NC(=O)NC1c1ccc(OC)cc1 (centres undefined)	i
O=C(O)CC1=C/C(=C\c2ccc(C(F)(F)F)cc2)c2ccc(F)cc21	i
COc1ccc(-c2n[nH]n3c2nc(=O)c2ccc(C(=O)NCc4ccccc4OC)cc23)cc1	i
CCOc1c[nH]c(C(=O)Nc2nc3c(C)cccc3s2)cc1=O	i

# Entries listed so far containing an aryl thioether with sulfur outside any ring, in the order listed:
Structure	GIRK2 activ
Cc1ccc(-n2nnnc2SCC(=O)NCCO)cc1Cl	i
O=c1c2cc(N3CCOCC3)ccc2nc(SCc2ccncc2)n1Cc1ccccc1	i
O=C(CSc1nnc2ccc3ccccc3n12)Nc1ccc2c(c1)OCCO2	i

# The results go on:
Structure	GIRK2 activ
COCCNC(=O)Cc1ccc(NC(=O)NC2CC2)cc1	i
COc1cc(/C=C/C(=O)Nc2cccc3cnccc23)cc(OC)c1OC	i
COC(=O)[C@]1(Cc2ccc(O)c(CC=C(C)C)c2)OC(=O)C(O)=C1c1ccc(O)cc1	i
O=C(CN1CCN(Cc2nc(-c3ccco3)cs2)CC1)NCc1ccc(F)cc1	i
Cc1nc2sc(C)c(C)n2c(=O)c1NC(=O)c1ccc2ccccc2n1	i
COc1cccc2cc(C(=O)NCc3ccc(S(N)(=O)=O)cc3)oc12	i
Cc1nnc(NC(=O)c2cc3n(n2)CCCO3)s1	i
CCC(C(=O)N1CCN(c2cc(-c3ccccc3)ncn2)CC1)c1ccccc1 (centres undefined)	i
COc1cccc(-n2c(C)cn3c4c(=O)n(CCN5CCCCC5)c(=O)n(C)c4nc23)c1	i
Cc1ccc(NS(=O)(=O)c2n[nH]c(C)c2C(=O)Nc2cccc(C(C)C)c2)cc1	i
COc1ccccc1COc1cc(NC(=O)NC(C)(C)C)ncn1	i
N#Cc1ccc(C(=O)Nc2ccc3c(c2)N(S(=O)(=O)c2ccc(F)cc2)CCC3)cc1	i
O=C(c1nc2ccccc2s1)N(CCn1cccn1)c1nc2ccccc2s1	i
Cc1cc(C)nc(NC(=O)CN2CCN(c3ccccc3F)C2=O)n1	i
COc1cc2oc(C)c(C)c2cc1/C(C)=C/C(=O)NCCc1ccc(S(N)(=O)=O)cc1	i
O=C(NCc1ccc(Cl)cc1)c1nnn(-c2ccc(F)cc2)n1	i
O=C(NCc1nn(C2CCCC2)c(=O)c2ccccc12)c1cccnc1	i
CCCn1c(C(=O)Nc2ccccc2C(N)=O)cc2c(=O)n(C)c(=O)n(C)c21	i
Cc1cc(NC(=O)C(=O)NCC(c2cccn2C)N2CCCCCC2)no1 (centres undefined)	i
O=C(CN1CCN(C(=O)c2ccc3c(c2)OCO3)CC1)c1ccco1	i

# Four entries out of the list, ordered by count of non-hydrogen atoms, rising:
Structure	GIRK2 activ
O=C(NCc1ccc(Cl)cc1)c1nnn(-c2ccc(F)cc2)n1	i
COc1ccccc1COc1cc(NC(=O)NC(C)(C)C)ncn1	i
CCCn1c(C(=O)Nc2ccccc2C(N)=O)cc2c(=O)n(C)c(=O)n(C)c21	i
COc1cc2oc(C)c(C)c2cc1/C(C)=C/C(=O)NCCc1ccc(S(N)(=O)=O)cc1	i

# Other compounds:
Structure	GIRK2 activ
COc1ccc(F)cc1S(=O)(=O)NCCn1nc(-n2cccn2)ccc1=O	i
COc1ccc(C)cc1NC(=O)Cn1c(-c2ccc(C)cc2)ncc(C#N)c1=O	i
Cc1ccc(NC(=O)CSc2nnc(Cn3ccc(=O)[nH]c3=O)o2)cc1Cl	i
C=CCSc1nnc(-c2ccccc2NC(=O)/C=C/c2cccs2)o1	i
COc1cc(CN2CC(c3nc(Cc4ccccc4)no3)C2)cc(OC)c1	i
CS(=O)(=O)Nc1cccc(NC(=O)c2cccc(-n3cnnn3)c2)c1	i
Cc1nc(-c2ccccc2)sc1CNC(=O)c1cc(=O)[nH]c(=O)[nH]1	i
COc1ccc(S(=O)(=O)N2CCCc3cc(NC(=O)CC(C)(C)C)ccc32)cc1	i
Cc1nnsc1C(=O)N1CCN(CC(O)C2CC2)CC1 (centres undefined)	i
CCN1CCc2c(sc(NC(=O)c3ccc(OC)cc3)c2-c2nc3ccccc3s2)C1	i
COc1ccc2c(c1)CCN(C(=O)c1cnc(C)cn1)C2	i
CCc1nc(-c2ccc(-n3ccc(C(=O)N4CCN(C(=O)c5ccco5)CC4)n3)cc2)no1	i
O=C(CCc1cccc(Oc2ccc(F)cc2)c1)N1CCN(c2ncccn2)CC1	i
O=C1C2N=NN(Cc3nc(-c4ccc(Cl)cc4)no3)C2C(=O)N1c1ccc(F)cc1 (centres undefined)	i
Cn1c(=O)c2c(nc(NCc3cccnc3)n2CC(=O)c2ccccc2)n(C)c1=O	i
C/C=C/C(=O)Nc1ccc(-n2nnn(C)c2=O)cc1	i
COC(=O)c1ccccc1NS(=O)(=O)c1ccsc1C(=O)OC	i
COc1ccc(OC)c(-n2c(-c3ccc(F)cc3)cn3c4c(=O)[nH]c(=O)n(C)c4nc23)c1	i
CCOc1ccc(-c2cc3c(N4CCC(C(=O)NCc5ccc(C)cc5)CC4)nccn3n2)cc1	i
O=C(Cn1c(=O)nc(-c2ccccc2F)c2cc(Cl)ccc21)Nc1ccc2c(c1)OCCO2	i
Cc1cccc(N2C(=O)N(c3cccc([N+](=O)[O-])c3)C3CS(=O)(=O)CC32)c1C (centres undefined)	i
Cc1ccc(=O)n(C(C)C(=O)NCc2ccc(Cl)cc2)n1 (centres undefined)	i
O=C(CCc1csc(NC(=O)NC2CCCCC2)n1)NC1CCCCCC1	i
O=C(CN1CCN(S(=O)(=O)c2ccccc2)CC1)c1ccco1	i
COc1ccc(-n2nncc2CN2CCN(C(=O)c3ccc4c(c3)OCO4)CC2)cc1F	i
C=CCn1c(SCC(=O)N2CCc3cc(OC)c(OC)cc3C2)nc2sc3c(c2c1=O)CCC3	i
COCCOC(=O)C1=C(C)NC(=O)NC1c1ccc(C)cc1 (centres undefined)	i
Cc1ccc(N2CN(Cc3c(C)noc3C)S(=O)(=O)c3cccnc32)cc1	i
COc1ccc(S(N)(=O)=O)cc1N(C)S(=O)(=O)c1ccccc1	i
CC(C)N1CCc2c(sc(NC(=O)c3cc4ccccc4o3)c2-c2nc3ccccc3s2)C1	i
CCCc1nnsc1C(=O)Nc1nc(-c2ccc(F)cc2)cs1	i
COc1cccc(N2CC(c3nc4ccccc4n3Cc3ccc(F)cc3)CC2=O)c1 (centres undefined)	i
O=C(COc1ccccc1)N1CCC(CNC(=O)C2(c3ccc(F)cc3)CC2)CC1	i
O=C(CCSc1ccccc1)NCC1CCN(c2ccccn2)CC1	i
N#Cc1nc(-c2ccc(COc3ccc(Cl)cc3)o2)oc1NCCCn1ccnc1	i
Cc1nc(-c2cccs2)sc1CNS(=O)(=O)c1ccc(Br)cc1	i
Cc1nc2cc(NC(=O)CN3CCN(c4cccc(Cl)c4)C3=O)ccc2s1	i
COc1ccc(S(=O)(=O)N2CCC3(CC2)OCCS3)c(C)c1	i
CN1CCN(C(=O)c2ccc(NC(=O)Nc3ccc(N(C)c4ccnc(Nc5ccc(CS(C)(=O)=O)cc5)n4)cc3)cc2)CC1	i
Cc1cc(NC(=O)CCCc2ccccc2)n(CCO)n1	i
CC(=O)N1CCc2c(sc(N)c2-c2nc3ccccc3s2)C1	i
COCCN(Cc1ccncc1)C(=O)CSCc1ccccc1	i
O=C(Nc1ccccc1)OC1CCCC(NS(=O)(=O)c2ccc3c(c2)OCCO3)C1 (centres undefined)	i
Cc1cc(C)nc(Nc2nc(C(=O)Nc3ccc(Br)cc3C)cs2)n1	i
O=C(COc1ccc(Cl)cc1Cl)Nc1ccccc1-c1ccc(=O)[nH]n1	i
COc1ccccc1COc1cc(NC(=O)Cn2cncn2)ncn1	i
O=C(/C=C/c1cccs1)Nc1ccc(-c2ccn[nH]2)cc1	i
Cc1ccc(Cn2c(=O)c3c(nc4n(-c5ccccc5O)c(C)c(C)n34)n(C)c2=O)cc1	i
CCOCC(=O)NCC1CCN(C(=O)Oc2ccccc2)CC1	i
CCN1CCCc2cc(CCNC(=O)c3ccc(OC)cc3)ccc21	i

# Continued:
Structure	GIRK2 activ
CC(C(=O)NC1CCSC1=O)n1nc(-c2ccccc2)ccc1=O (centres undefined)	i
COc1ccc(S(=O)(=O)N2CCCC2)cc1C(=O)Nc1ccc(S(C)(=O)=O)cc1	i
COC(=O)c1ccccc1C(=O)N1CCC(c2nnc(-c3ccco3)o2)CC1	i
COc1ccc(CCS(=O)(=O)N(CCc2cccs2)Cc2ccco2)cc1	i
O=C(Cc1csc(Nc2ccc(Cl)cn2)n1)Nc1ccc(-n2cnnn2)cc1	i
Cc1ccc(CNC(=O)Cn2c(=O)c(S(=O)(=O)c3ccccc3)cc3ccccc32)cc1	i
CS(=O)(=O)C1CCN(C(=O)C2(c3ccccc3)CCOCC2)C1 (centres undefined)	i
Cc1ccc(NC(=O)Cn2ccn3nc(-c4ccccc4)cc3c2=O)c(Br)c1	i
COc1ccc(NC(=O)COc2coc(CSc3nncn3C)cc2=O)cc1OC	i
CCOC(=O)CCn1cc(-c2nc(C)no2)ccc1=O	i
CC(C)NC(=O)N1CC(c2nc(-c3cccs3)no2)C1	i
O=C(CN1CCN(C(=O)Cn2cccc2)CC1)c1cccs1	i
O=C(CCc1csc(NC(=O)NC2CCCCC2)n1)NC1CCN(Cc2ccccc2)CC1	i
Cc1cc(C)n(-c2ccc(=O)n(CC(=O)NCc3ccccc3Cl)n2)n1	i
COc1ccccc1C1c2c(oc3cc(C)c(C)cc3c2=O)C(=O)N1CCN1CCOCC1 (centres undefined)	i
COCC(=O)N1CCc2nc(NC(=O)C3CCC3)sc2C1	i
COc1ccc(OCc2noc(CNC(=O)c3ccc(Cn4ccnc4)cc3)n2)cc1	i
O=C(c1ccsc1)N1CCC(CSC2=NCCS2)CC1	i
Cc1ccc2nc(-c3ccc(NC(=O)C(C)n4ncccc4=O)cc3)sc2c1 (centres undefined)	i
COc1cccc(-c2ccc(=O)n(Cc3nc(-c4cccc(OC)c4)no3)n2)c1	i
Cn1c(C2CC(=O)N(C(C)(C)C)C2)nc2ccccc21 (centres undefined)	i
COC1=C(OC)C(=O)C(CCCCCCCCCCO)=C(C)C1=O	i
COc1cccc2cc(C(=O)N3CCN(c4ccc(C)c(Cl)c4)CC3)c(=O)oc12	i
COc1ccccc1NC(=O)Cn1nc2cc(-c3ccccc3)nc(C)n2c1=O	i
O=S(=O)(NC1(c2nc(C3CC3)no2)CCCCC1)c1ccccc1	i
Cc1cc(N)nc(Nc2ccc(Nc3ccccc3)cc2)n1	i
O=C(C1CCN(c2ccc(-c3ccccc3)nn2)CC1)N1CCN(c2ccccc2F)CC1	i
CCc1nnc(NC(=O)c2ccc3c(c2)c(=O)cc(C)n3CC)s1	i
NC(=O)c1nnn(-c2ccc(NC(=O)C(c3ccccc3)c3ccccc3)cc2)n1	i
CC1CCN(C(=O)CCCNS(=O)(=O)c2ccc(Cl)cc2)CC1	i
